FGF22 binding: binders of human FGF22 protein, primary screen, FGF22 synaptogenesis inhibitor project, biophysical, thermal shift, single point. calls only at 9.99 µM. AID 651658, 2012. actives 1.5% (n = 340,000). recombinant FGF22 thermal shift, SYPRO orange fluorescence; percent of sucrose octasulfate shift, DMSO zero. Fibroblast growth factor 22 (Homo sapiens), Q9HCT0;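 active means melting point raised past a set limit in the mean and every replicate; three in four hits are not shown here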
Target sequence (Q9HCT0 whole entry, looked up): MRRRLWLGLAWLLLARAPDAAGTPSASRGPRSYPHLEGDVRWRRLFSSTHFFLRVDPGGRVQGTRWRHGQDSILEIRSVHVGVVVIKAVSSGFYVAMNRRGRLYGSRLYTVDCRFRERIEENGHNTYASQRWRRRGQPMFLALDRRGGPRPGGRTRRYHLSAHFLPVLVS
Calls only; i = inactive.

SMILES: C[C@H](CO)N1C[C@H](C)[C@H](CN(C)S(=O)(=O)c2ccc(F)cc2)Oc2c(NC(=O)Nc3cccc4ccccc34)cccc2C1=O
  FGF22 binding: i
SMILES: C[C@H](NC(=O)[C@@H]1[C@@H](CO)[C@@H]2Cn3c(ccc(-c4cccnc4)c3=O)[C@@H]2N1C)c1ccccc1
  FGF22 binding: i
SMILES: O=C(C[C@@H]1C[C@@H]2c3cc(NC(=O)C4CCC4)ccc3O[C@@H]2[C@H](CO)O1)NCCN1CCCCC1
  FGF22 binding: i
SMILES: C[C@H](CO)N1C[C@H](C)[C@H](CN(C)S(=O)(=O)c2cn(C)cn2)Oc2c(NS(=O)(=O)c3cn(C)cn3)cccc2C1=O
  FGF22 binding: i
SMILES: C[C@@H]1CN([C@H](C)CO)C(=O)Cc2cc(NC(=O)Nc3ccccc3)ccc2O[C@H]1CN(C)Cc1ccc(-c2ccccc2)cc1
  FGF22 binding: i
SMILES: CC(=O)NC[C@H]1[C@@H](c2ccc(-c3ccccc3)cc2)[C@@H](CO)N1C(=O)C1CC1
  FGF22 binding: i
SMILES: C[C@@H]1CN([C@H](C)CO)C(=O)c2cc(NC(=O)Nc3ccc(F)cc3)ccc2O[C@H]1CN(C)Cc1ccccc1
  FGF22 binding: i
SMILES: O=C(C[C@@H]1CC[C@H]2[C@@H](COC[C@@H](O)CN2C(=O)c2ccccc2)O1)NC1Cc2ccccc2C1
  FGF22 binding: i
SMILES: COc1ccc(NC(=O)N(C)C[C@@H]2OCCCC[C@@H](C)Oc3ccc(NC(=O)CCCN(C)C)cc3C(=O)N([C@H](C)CO)C[C@@H]2C)cc1
  FGF22 binding: i
SMILES: CO[C@@H]1CN(C)C(=O)c2ccc(NC(=O)C3CCC3)cc2OC[C@@H](C)N(Cc2ccccn2)C[C@H]1C
  FGF22 binding: i

SMILES: Cc1noc(C)c1NC(=O)Nc1cccc2c1O[C@@H](CN(C)Cc1ccccc1)[C@H](C)CN([C@H](C)CO)C2=O
  FGF22 binding: i
SMILES: C[C@H](CO)N1C[C@H](C)[C@H](CN(C)CC2CCCCC2)Oc2c(NS(=O)(=O)c3ccccc3)cccc2C1=O
  FGF22 binding: i
SMILES: COc1ccc(S(=O)(=O)Nc2ccc3c(c2)C(=O)N([C@H](C)CO)C[C@@H](C)[C@H](CN(C)S(=O)(=O)c2cn(C)cn2)O3)cc1
  FGF22 binding: i
SMILES: COC(=O)[C@@H]1[C@@H](CO)[C@@H]2Cn3c(ccc(C4=CCCCC4)c3=O)[C@@H]2N1C(=O)C1CC1
  FGF22 binding: i
SMILES: CN1CCN(C(=O)C[C@H]2CC[C@H]3[C@H](COc4ccc(NC(=O)c5cccs5)cc4C(=O)N3C)O2)CC1
  FGF22 binding: i
SMILES: C[C@H]1CN([C@@H](C)CO)C(=O)c2cccc(NS(=O)(=O)c3ccccc3)c2O[C@@H]1CN(C)CC1CCCCC1
  FGF22 binding: i
SMILES: Cc1noc(C)c1NC(=O)N[C@@H]1C=C[C@@H](CC(=O)Nc2ccc(-c3ccccc3)cc2)O[C@@H]1CO
  FGF22 binding: i
SMILES: COc1ccccc1CNC(=O)C[C@H]1C[C@@H]2c3cc(NC(=O)Nc4ccc(C(F)(F)F)cc4)ccc3O[C@@H]2[C@H](CO)O1
  FGF22 binding: i
SMILES: C[C@H](CO)N1C[C@H](C)[C@H](CN(C)C(=O)Nc2ccc3c(c2)OCO3)Oc2ncc(C#CC3(O)CCCC3)cc2C1=O
  FGF22 binding: i
SMILES: COc1ccccc1S(=O)(=O)N[C@H]1CC[C@H](CCn2cc(C3CCCCC3)nn2)O[C@H]1CO
  FGF22 binding: i

SMILES: C[C@H]1CN([C@@H](C)CO)C(=O)c2cc(NS(=O)(=O)c3cccs3)ccc2O[C@@H]1CN(C)C(=O)Nc1ccc2c(c1)OCO2
  FGF22 binding: i
SMILES: O=C(NCc1ccccc1)[C@@]1(Cc2ccccc2)COC(c2ccc(OCCCO)cc2)=N1
  FGF22 binding: i
SMILES: CCS(=O)(=O)N1[C@H](CO)[C@H](c2ccc(C#CC(C)C)cc2)[C@@H]1C#N
  FGF22 binding: i
SMILES: C[C@H]1CN([C@@H](C)CO)C(=O)c2cccc(NS(C)(=O)=O)c2O[C@H]1CN(C)C(=O)Nc1ccccc1
  FGF22 binding: i
SMILES: C[C@H](CO)N1C[C@H](C)[C@H](CN(C)S(=O)(=O)c2ccc(F)cc2)OCCCC[C@H](C)Oc2ccc(NC(=O)CCCN(C)C)cc2C1=O
  FGF22 binding: i
SMILES: C[C@@H]1CN([C@@H](C)CO)C(=O)c2cc(-c3ccc(F)cc3)cnc2O[C@H]1CN(C)C(=O)Nc1ccccc1F
  FGF22 binding: i
SMILES: O=C(Nc1ccccc1)N[C@@H]1CC[C@@H](CCNS(=O)(=O)c2ccccc2F)O[C@H]1CO
  FGF22 binding: i
SMILES: COC(=O)c1cn(CCNC(=O)[C@H](Cc2ccccc2)NS(=O)(=O)c2ccc(C)cc2)nn1
  FGF22 binding: i
SMILES: Cc1ccc(S(=O)(=O)N(C)C[C@H]2OCCCC[C@@H](C)Oc3ccc(NC(=O)CCCN(C)C)cc3C(=O)N([C@H](C)CO)C[C@@H]2C)cc1
  FGF22 binding: i
SMILES: CNC[C@@H]1Oc2c(NC(=O)c3ccc(-c4nccs4)cc3)cccc2C(=O)N([C@H](C)CO)C[C@@H]1C
  FGF22 binding: i

SMILES: CC(C)NC(=O)N(C)C[C@H]1Oc2ccc(NC(=O)Nc3ccc4c(c3)OCO4)cc2CC(=O)N([C@@H](C)CO)C[C@@H]1C
  FGF22 binding: i
SMILES: C[C@H]1CCCCO[C@@H](CN(C)C(=O)NC2CCCCC2)[C@@H](C)CN([C@@H](C)CO)C(=O)c2cc(NS(C)(=O)=O)ccc2O1
  FGF22 binding: i
SMILES: C[C@@H]1CN([C@@H](C)CO)C(=O)Cc2cc(NC(=O)Cc3ccccc3)ccc2O[C@H]1CN(C)Cc1ccc(-c2ccccc2)cc1
  FGF22 binding: i
SMILES: C[C@@H]1CCCCO[C@H](CN(C)C(=O)C2CCCCC2)[C@H](C)CN([C@H](C)CO)C(=O)c2cc(NC(=O)C3CCCCC3)ccc2O1
  FGF22 binding: i
SMILES: C[C@@H]1CN([C@H](C)CO)S(=O)(=O)c2ccc(-c3ccccc3)cc2O[C@H]1CN(C)C
  FGF22 binding: i
SMILES: CC(C)NC(=O)N1[C@H](CO)[C@H](c2ccccc2)C12CN(C(=O)Cc1ccccc1)C2
  FGF22 binding: i
SMILES: COc1ccc(S(=O)(=O)Nc2ccc3c(c2)C(=O)N([C@H](C)CO)C[C@@H](C)[C@H](CN(C)Cc2ccccc2)OCCCC[C@H](C)O3)cc1
  FGF22 binding: i
SMILES: C[C@@H]1CN([C@@H](C)CO)C(=O)c2cc(-c3ccc(F)cc3)cnc2O[C@H]1CN(C)CC1CCOCC1
  FGF22 binding: i
SMILES: C[C@@H]1CN([C@@H](C)CO)C(=O)Cc2cc(NC(=O)Nc3cccc4ccccc34)ccc2O[C@H]1CN(C)C(=O)Nc1ccc(F)cc1
  FGF22 binding: i
SMILES: COCC(=O)N1CCC2(CC1)CN(S(C)(=O)=O)[C@H](CO)c1[nH]c3cc(OC)ccc3c12
  FGF22 binding: i

(continued)
compound	FGF22 binding
N#C[C@H]1[C@H](c2ccc(C3=CCCCC3)cc2)[C@@H](CO)N1C(=O)CN1CCOCC1	i
COCC(=O)Nc1ccc2c(c1)C(=O)N(C)C[C@H](OC)[C@H](C)CN(C(=O)c1cccnc1)[C@@H](C)CO2	i
C[C@H](CO)N1C[C@H](C)[C@H](CN(C)C(=O)Nc2cccc3ccccc23)Oc2c(NS(=O)(=O)c3cn(C)cn3)cccc2C1=O	i
C[C@@H]1CN([C@@H](C)CO)C(=O)c2cc(C#CC(C)(C)O)cnc2O[C@H]1CN(C)C(=O)C1CCC1	i
C[C@@H]1CN([C@@H](C)CO)C(=O)c2cc(N(C)C)ccc2O[C@@H](C)CCCCO[C@H]1CN(C)C(=O)c1ccncc1	i
CC(C)[C@H](C)NC(=O)N(C)C[C@@H]1OCc2ccccc2-c2c(n(C)c3ccccc23)C(=O)N([C@H](C)CO)C[C@H]1C	i
C[C@@H]1CN([C@H](C)CO)C(=O)c2cc(NS(=O)(=O)c3cccs3)ccc2O[C@@H](C)CCCCO[C@@H]1CN(C)Cc1ccc2c(c1)OCO2	i
COc1ccc(CN2C[C@@H](O)COC[C@H]3O[C@@H](CC(=O)NCCN4CCCC4)CC[C@@H]32)cc1	i
COc1ccccc1S(=O)(=O)N[C@H]1CC[C@@H](CCn2cc(C3CC3)nn2)O[C@H]1CO	i
CCC(=O)N1CCCCN2[C@H](CO)[C@@H](c3ccc(C#CCOC)cc3)[C@H]2C1	i
CCCNC(=O)[C@@H]1[C@@H](CO)[C@@H]2Cn3c(ccc(-c4ccccc4)c3=O)[C@@H]2N1C(=O)c1ccccc1F	i
Cc1ccccc1S(=O)(=O)N1[C@H](CO)[C@H](c2ccccc2)[C@@H]1C#N	i
C[C@H](CO)N1C[C@H](C)[C@H](CN(C)C(=O)CCC(F)(F)F)OCCCC[C@H](C)Oc2ccc(NS(=O)(=O)c3cn(C)cn3)cc2C1=O	i
C[C@@H]1CN([C@H](C)CO)S(=O)(=O)c2ccc(-c3ccncc3)cc2O[C@@H]1CN(C)C(=O)c1cccc(F)c1	i
C[C@@H]1CN([C@H](C)CO)C(=O)c2cccc(NC(=O)c3ccncc3)c2O[C@H]1CN(C)CC1CC1	i
CC(C)C(C(=O)NCc1ccccc1)N1CCN(CCN2CCOCC2)CC1 (stereo not drawn)	i
COc1ccc(CN(C)C[C@@H]2OCCCC[C@H](C)Oc3ccc(NS(=O)(=O)c4cccs4)cc3C(=O)N([C@@H](C)CO)C[C@H]2C)cc1	i
CCCN(C)C[C@@H]1Oc2cc(C#CC3CC3)ccc2S(=O)(=O)N([C@H](C)CO)C[C@@H]1C	i
CO[C@H]1CN(C)C(=O)c2ccc(NC(=O)C3CC3)cc2OC[C@H](C)N(Cc2nccs2)C[C@@H]1C	i
CCS(=O)(=O)Nc1ccc2c(c1)C(=O)N(C)[C@@H]1CC[C@H](CC(=O)NCCOC)O[C@@H]1CO2	i
CO[C@@H]1CN(C)C(=O)c2ccc(NC(=O)c3cc(C)on3)cc2OC[C@@H](C)N(C(C)=O)C[C@H]1C	i
C[C@@H]1CN([C@H](C)CO)C(=O)c2cc(NC(=O)C3CC3)ccc2O[C@@H]1CN(C)Cc1ccc(Cl)c(Cl)c1	i
Cc1cccc(S(=O)(=O)N2C[C@H](O)COC[C@H]3O[C@H](CC(=O)N4CCN(C)CC4)CC[C@@H]32)c1	i
COc1cccc(-c2cnc3c(c2)C(=O)N([C@H](C)CO)C[C@H](C)[C@H](CN(C)C(=O)CC2CC2)O3)c1	i
COc1ccc(CN(C)C[C@@H]2Oc3ccc(NS(=O)(=O)c4ccc(C)cc4)cc3C(=O)N([C@H](C)CO)C[C@H]2C)cc1	i
C[C@@H]1CN([C@H](C)CO)C(=O)c2cc(C3=CCCCC3)cnc2O[C@H]1CN(C)C(=O)c1ccccn1	i
Cc1ccc(S(=O)(=O)N[C@@H]2CC[C@H](CC(=O)N3CCC(Cc4ccccc4)CC3)O[C@H]2CO)cc1	i
N#Cc1cccc(-c2ccc3c(c2)[C@H]2[C@H](CCN2C(=O)c2ccncc2)[C@H](CO)N3)c1	i
C[C@@H]1CN([C@@H](C)CO)C(=O)c2c(c3ccccc3n2C)-c2ccccc2CO[C@@H]1CN(C)Cc1cccnc1	i
C[C@H](NC(=O)C[C@H]1CC[C@H]2[C@@H](COC[C@@H](O)CN2C(=O)Nc2cccc(F)c2)O1)c1ccccc1	i

No new results follow: entries from further up.
compound	FGF22 binding
COc1cccc(-c2cnc3c(c2)C(=O)N([C@H](C)CO)C[C@H](C)[C@H](CN(C)C(=O)CC2CC2)O3)c1	i
COc1ccc(CN(C)C[C@@H]2Oc3ccc(NS(=O)(=O)c4ccc(C)cc4)cc3C(=O)N([C@H](C)CO)C[C@H]2C)cc1	i
C[C@@H]1CN([C@H](C)CO)C(=O)c2cc(C3=CCCCC3)cnc2O[C@H]1CN(C)C(=O)c1ccccn1	i

Of the compounds above, 4 contain a cyano group.
compound	FGF22 binding
CCS(=O)(=O)N1[C@H](CO)[C@H](c2ccc(C#CC(C)C)cc2)[C@@H]1C#N	i
N#C[C@H]1[C@H](c2ccc(C3=CCCCC3)cc2)[C@@H](CO)N1C(=O)CN1CCOCC1	i
Cc1ccccc1S(=O)(=O)N1[C@H](CO)[C@H](c2ccccc2)[C@@H]1C#N	i
N#Cc1cccc(-c2ccc3c(c2)[C@H]2[C@H](CCN2C(=O)c2ccncc2)[C@H](CO)N3)c1	i

Carrying on.
compound	FGF22 binding
Cc1ccccc1-c1ccc([C@@H]2[C@H](CO)N3CCCCN(S(C)(=O)=O)C[C@@H]23)cc1	i
C[C@@H](NC(=O)C[C@@H]1C=C[C@H](NC(=O)Nc2ccc3c(c2)OCO3)[C@H](CO)O1)c1ccccc1	i
Cc1ccccc1-c1ccc(C2[C@H]3CNC[C@@H]2N3C(=O)Nc2ccc(Cl)cc2)cc1 (stereo partly drawn)	i
C[C@H](CO)N1C[C@H](C)[C@H](CN(C)S(C)(=O)=O)OCCCC[C@H](C)Oc2ccc(NC(=O)c3ccccc3)cc2C1=O	i
C[C@H](CO)N1C[C@H](C)[C@H](CN(C)CC2CC2)Oc2ccc(NC(=O)CCC(F)(F)F)cc2CC1=O	i
O=C(CC1CCCC1)N[C@H](C(=O)N1CCC[C@H]1C(=O)NCCc1ccccc1Cl)c1ccccc1	i
COc1cccc(C#Cc2cnc3c(c2)C(=O)N([C@@H](C)CO)C[C@H](C)[C@H](CN(C)C(=O)C2CC2)O3)c1	i
Cc1noc(C)c1NC(=O)N(C)C[C@@H]1OCCCC[C@H](C)Oc2ccc(NS(=O)(=O)c3cccs3)cc2C(=O)N([C@@H](C)CO)C[C@H]1C	i
O=C(C[C@H]1CC[C@@H]2[C@H](COC[C@@H](O)CN2Cc2ccncc2)O1)NCc1ccccc1Cl	i
CC(C)NC(=O)N(C)C[C@@H]1Oc2ccc(NC(=O)Cc3cn(C)c4ccccc34)cc2C(=O)N([C@H](C)CO)C[C@@H]1C	i
CC(C)NC(=O)Nc1ccc2c(c1)C(=O)N([C@@H](C)CO)C[C@H](C)[C@@H](CN(C)C(=O)NC1CCCCC1)OCCCC[C@H](C)O2	i
COc1ccc2c3c(n(C)c2c1)[C@H](CO)N(C(=O)NC(C)C)CC31CN(C(=O)NC(C)C)C1	i

Screening data (PubChem BioAssay)

Not all compounds are listed; rates above refer to the full screens.
